Source: PubChem (National Center for Advancing Translational Sciences (NCATS))
HSD17B inhib: qHTS Assay for Inhibitors of HSD17B4, hydroxysteroid (17-beta) dehydrogenase 4. 3-hydroxyacyl-CoA dehydrogenase type-2 (Homo sapiens), Q99714. recombinant HSD17B10, NADH fluorescence kinetic; many of its hits are not listed in these tables. Potency, µM (doses to about 57.1 µM), without a hit: at the top dose activity change, negative = inhibition, hits mostly inhibitors. 75,000 tested, 7.6% active; active = well fitted inhibition curve with a large enough effect; inconclusive = small, poorly fitted or top-dose-only effect; inactive = no such curve, though single readings can be large or run the other way;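 note: the protocol describes HADH2 (HSD17B10) and not the HSD17B4 of the title; nearly all actives have a fitted effect of over 70% in size; most hits overshoot -100% by far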
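Activity followed as NADH fluorescence increase (ex 360, em 450 nm) every 30 seconds for 4 min, using final 90 uM beta-hydroxybutyryl CoA and 1 mM NAD+. Recombinant His-tagged enzyme, 20 nM, pH 9.0 Tris buffer, 15 min compound preincubation.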
Starred values were filed as active, the others as inactive; ? = inconclusive; [ ] = another dose, or the depositor's remark. % is set by controls: 0 for no effect and ±100 for the full control effect; potency is the fitted concentration of half-maximal effect. These rows are one share of the data, so the mix of outcomes need not match the whole.

SMILES	HSD17B inhib
CN(C)Cc1ccccc1-c1ccc2ncnc(NCc3ccccc3)c2c1	9.4%
CCN1CCN(c2nc3c(c(=O)n(C)c(=O)n3C)n2CCSc2ncccn2)CC1	6.0%
COc1ccc(/C(O)=C2/C(=O)C(=O)N(CCCN(C)C)C2c2cccnc2)cc1 (stereo not drawn)	-1.1%
COc1ccc(-c2noc(N3CCC(C(=O)N4CCN(c5ccccn5)CC4)CC3)n2)cc1	25.1µM*
CCCc1nc(SCC(=O)N2CCN(c3ccccc3)CC2)c2c(=O)n(C)c(=O)n(C)c2n1	?
CCOC(=O)Nc1cccc2ccccc12	-20.1%
Cc1ccc2c(c1)C(N1CCCC1=O)CC(c1ccco1)N2 (stereo not drawn)	?
O=C(Nc1ccccc1C(=O)N1CCOCC1)c1noc2c1CCCC2	-13.5%
CCOC(=O)c1cnn(CC2CCCCC2)c1N	-2.8%
O=S(=O)(Nc1ccc2c(c1)CCC2)c1cccs1	0.9%

Structural class, the compounds so far containing four or more nitrogen atoms
SMILES	HSD17B inhib
CN(C)Cc1ccccc1-c1ccc2ncnc(NCc3ccccc3)c2c1	9.4%
CCN1CCN(c2nc3c(c(=O)n(C)c(=O)n3C)n2CCSc2ncccn2)CC1	6.0%
COc1ccc(-c2noc(N3CCC(C(=O)N4CCN(c5ccccn5)CC4)CC3)n2)cc1	25.1µM*
CCCc1nc(SCC(=O)N2CCN(c3ccccc3)CC2)c2c(=O)n(C)c(=O)n(C)c2n1	?

More structures follow:
SMILES	HSD17B inhib
Nn1c(SCC(=O)Nc2ccc3c(c2)OCO3)nnc1-c1ccncc1	-3.2%
CCCCn1c(SCC(=O)c2ccc3c(c2)OCCO3)nnc1-c1ccco1	-9.9%
Cc1ccc(S(=O)(=O)CNC(=O)c2ccccc2)cc1	9.3%
CC(C)OCCCn1c(=S)[nH]c2cc3c(cc2c1=O)OCO3	-1.1%
COc1ccc(NC(=O)N(CCCN2CCOCC2)Cc2cccnc2)c(OC)c1	6.9%
C=CCNC(=O)c1nn2cccnc2c1Cl	0.0%
CCOC(=O)N1CCN(Cc2nc(-c3ccccc3)no2)CC1	5.9%
CCOc1ccccc1CNC(=O)C1CCN(C(=O)c2sccc2-n2cccc2)CC1	4.1%
Cc1nc(NC(=O)c2csc3ccccc23)sc1C	71.5%[activator]
COc1ccc(-c2nnc(SCc3csc(N)n3)n2C)cc1	0.9%

Ordered by count of non-hydrogen atoms (descending): part of the list above.
SMILES	HSD17B inhib
Nn1c(SCC(=O)Nc2ccc3c(c2)OCO3)nnc1-c1ccncc1	-3.2%
CCOC(=O)N1CCN(Cc2nc(-c3ccccc3)no2)CC1	5.9%
Cc1ccc(S(=O)(=O)CNC(=O)c2ccccc2)cc1	9.3%
Cc1nc(NC(=O)c2csc3ccccc23)sc1C	71.5%[activator]

New compounds follow.
SMILES	HSD17B inhib
COc1cccc(C(=O)N(Cc2nc(-c3cccc(C)c3)no2)C(C)C)c1OC	-3.5%
COc1cccc(N(CC(=O)N2CCN(C)CC2)S(=O)(=O)c2ccc(C)cc2)c1	3.0%
O=C(Cn1c(NCCO)nc2ccccc21)c1ccc(Cl)cc1	-1.0%
CCCCOCC1CN(c2ccccc2)C(=O)CS1 (stereo not drawn)	?
COc1ccc(NC(=O)C2CC(=O)N(C(C)C)C2)cc1 (stereo not drawn)	7.1%
CCOc1ccccc1N1CCN(S(=O)(=O)c2ccc(Cl)s2)CC1	-11.6%
CC(=O)Oc1ccc(N2C(=O)C3C(C2=O)C2(C)C=CC3(C)O2)cc1 (stereo not drawn)	?
Cc1cc(N2CCN(C(c3ccccc3)c3ccc(Cl)cc3)CC2)n2ncnc2n1 (stereo not drawn)	-19.2%
O=C(CSc1nnc(-c2ccc(Br)cc2)o1)N1CCN(C(=O)c2ccco2)CC1	2.6%
CCCCN(C)CCNC(=O)c1ccc2c(c1)NC(=O)C(N1CCCCC1)S2 (stereo not drawn)	8.0%
COc1ccc(CCNC(=O)CN2C(=O)C3(OCCCO3)c3ccccc32)cc1OC	-6.1%
CC1=C(C(=O)Nc2ccccc2C)C(c2cccnc2)n2nc(CCCO)nc2N1 (stereo not drawn)	-14.2%
O=C(CN1CCN(Cc2ccc(F)cc2Cl)C1=O)NCCCN1CCOCC1	1.5%
Cn1c(C(=O)NCCN2CCN(Cc3ccccc3)CC2)cc2c(=O)n(C)c3ccccc3c21	-18.1%
COc1ccc2[nH]cc(CCNc3cc(-c4c(C)noc4C)ncn3)c2c1	-10.5%
CCN(CC)c1ccc(NC(=O)Cn2nnc(-c3cccc(OC)c3OC)n2)c(C)c1	-4.7%
CNC(=O)c1ccccc1NC(=O)c1ccc(C)c(S(=O)(=O)N2CCCCC2)c1	-0.7%
COC(=O)C1=C(N)Oc2cc(C)n(Cc3cccnc3)c(=O)c2C1c1ccccc1OC (stereo not drawn)	-4.3%
O=C1CC(N(Cc2ccco2)C(=O)Nc2ccc(F)cc2)C(=O)N1c1ccc(F)cc1 (stereo not drawn)	-13.4%
CC(=O)c1c(C(C)=O)c(C)n(CCCCn2c(C)c(C(C)=O)c(C(C)=O)c2C)c1C	2.0%
O=C(NCC1CCCO1)C1c2ccccc2C(=O)N1Cc1ccc2c(c1)OCO2 (stereo not drawn)	5.0%
Cn1c(C(=O)NC2CCCC2)cc2c(=O)n(C)c3ccccc3c21	?
O=C(CSc1nc2ccccc2c(=O)n1CC1CCCO1)N1CCN(c2ccccc2)CC1 (stereo not drawn)	-3.4%
Cc1cc(NC(=O)c2ccc(S(=O)(=O)N(C)C)cc2)no1	-0.6%
Cc1nc2nc(SCC(=O)N3CCOCC3)nn2c(C)c1Cc1ccccc1	-4.3%
O=C(CSc1nnc2ccccn12)c1ccc(OC(F)F)cc1OC(F)F	?
CCCn1nnc(NC(=O)Cc2ccc(Cl)cc2)n1	6.3%
COc1ccc(N(Cc2cc(=O)[nH]c3ccccc23)C(=O)c2ccco2)cc1	0.5%
COc1cc2c(cc1OC)C(c1ccco1)CC(=O)N2 (stereo not drawn)	4.6%
Cc1occc1C(=O)NCc1ccc2c(c1)OCO2	-2.6%
Cc1ccc(CCNC(=O)C2CCCN(C(=O)c3cc4sccc4n3C)C2)cc1 (stereo not drawn)	3.4%
Nn1c(COc2ccccc2)nc2ccccc2c1=O	-6.2%
C#CCNc1c(C)c(C)nc2ncnn12	19.7%
CCC(=O)N1c2ccc(S(=O)(=O)N(CCO)Cc3ccccc3)cc2CC1C (stereo not drawn)	3.7%
COc1ccc(C(c2sc3nc(C)nn3c2O)N2CC(C)OC(C)C2)cc1OC (stereo not drawn)	?
CC1(C)C(=O)Nc2ccccc2N1C(=O)COc1ccc(S(=O)(=O)N2CCOCC2)cc1Cl	-24.6%
COc1ccc(Nc2ccccc2)c(C)c1	-1.7%
COC(=O)c1ccc2c(=O)n(CCN3CCOCC3)c(SCC(=O)c3ccccc3)nc2c1	-24.9%
O=c1cc(-c2ccccc2)oc2c(O)c(O)ccc12	10µM*
CC(C)c1nnc(NC(=O)C2CCCCC2)s1	6.8%
C[N+](C)(C)CC(=O)N/N=C\c1ccncc1	6.7%[11.4 µM]
COc1cccc(C(=O)CN2C(=O)C(C)(C)Oc3ccc(C(=O)N4CCCCCC4)cc32)c1	8.0%
Clc1ccccc1OCc1nc(-c2ccccn2)no1	-15.0%
CCc1cccc(CC)c1NC(=O)CN1CCN(c2ccccc2)CC1	-2.1%
Cc1cc(N2CCOCC2)nc2ccc(NC(=O)CCC(=O)N3CCCC(C)C3)cc12 (stereo not drawn)	25.1µM*
COc1ccc2[nH]cc(CCNc3ncnc4ccc(-c5ccccc5CN(C)C)cc34)c2c1	14.2%
COc1ccc(-c2nc(=S)[nH][nH]2)cc1	-18.8%
CCC(c1nnc(SCC(=O)N2CC(=O)Nc3ccccc32)n1Cc1ccccc1)N(C)C (stereo not drawn)	-2.6%
COc1ccc2[nH]cc(CCNc3ncnc4ccc(-c5ccccc5C#N)cc34)c2c1	2.5%
O=C(CC1=NC2(CCCC2)Cc2ccccc21)N1CCOCC1	-1.4%
Next results.
SMILES	HSD17B inhib
CCOc1ccc(OCC)c(NC(=O)CCn2c(=O)oc3ccccc32)c1	2.4%
COCCn1c(SCC(=O)N2CCCCC2)nc2cccnc21	0.7%
CC(C)COC(=O)C1[C@H]2C(=O)N(Cc3cccs3)C[C@]23C=C[C@H]1O3 (stereo partly drawn)	-1.6%
Cc1ccc(CCNC(=O)Cn2cccc2)cc1	-3.9%
CN1CCN(Cc2nc3c(c(=O)[nH]c(=O)n3C)n2CCc2ccccc2)CC1	10.6%
COCCn1c(=O)[nH]c2cc(C(=O)NCc3cccnc3)ccc2c1=O	31.6µM*
O=C(CSc1ccccc1)NCCCN1CCOCC1	-1.8%
CCn1cc(S(=O)(=O)CC(=O)Nc2cc(C)on2)c2ccccc21	-1.8%
Cc1ccc(NC(=O)CSC(N)=O)cc1Cl	1.9%
Cn1c(CCNC(=O)c2ccccc2)nc2cc(NC(=O)c3ccco3)ccc21	-4.8%

Looked up by structure from above (3):
SMILES	HSD17B inhib
O=C(CSc1ccccc1)NCCCN1CCOCC1	-1.8%
Cc1ccc(NC(=O)CSC(N)=O)cc1Cl	1.9%
COCCn1c(=O)[nH]c2cc(C(=O)NCc3cccnc3)ccc2c1=O	31.6µM*

Other compounds follow.
SMILES	HSD17B inhib
COc1ccc(OC)c(-c2nnc(-c3ccc(C)o3)o2)c1	25.1µM*
Cc1nc(C)c(C(=O)Nc2ccccc2-c2ccccc2)o1	-19.3%
Cc1ccc2cc(CCNC(=O)CC(C)(C)C)c(=O)[nH]c2c1C	3.0%
O=C(Cn1c(=O)oc2cc(S(=O)(=O)N3CCCC3)ccc21)NCc1ccccn1	6.8%
O=C(CSc1nnc(-c2ccc(Br)o2)n1Cc1ccccc1)c1ccccc1F	-21.0%
COc1cccc(-n2c(Cc3cc(=O)[nH]c(=O)[nH]3)nnc2SCC(=O)NC2CCCCC2)c1	-1.9%
CCOC(=O)CSc1nnc(-c2ccco2)n1-c1ccccc1	-3.3%
CC(C)OCCCNc1ncnc2c1[nH]c1ccc(F)cc12	25.1µM*
COc1ccc(C2N(c3ccccn3)C(=O)C3CCCN32)c(OC)c1 (stereo not drawn)	17.5%
CC(C)Cc1nc(S(=O)(=O)c2ccc(Cl)cc2)c(N2CCOCC2)o1	9.1%
CCOC(=O)N1CCC(NC(=O)c2ccc(CS(=O)(=O)c3ccccc3C)o2)CC1	-1.5%
CC1(C)CCC(NC(=O)[C@H](N)CCC(=O)O)CC1	3.8%
CCOc1ccccc1NC(=O)CCN1CCN(S(=O)(=O)c2ccc(OC)cc2)CC1	-0.4%
CCOC(=O)Cn1nnnc1C(CC)N(Cc1cc2ccc(C)cc2[nH]c1=O)C1CCCC1 (stereo not drawn)	?
Cc1cccc(-n2nnnc2SCC(=O)c2cc(C)n(Cc3ccco3)c2C)c1	?
COc1ccc(C)cc1NC(=O)CN(Cc1nnc(-c2ccc(Cl)cc2)o1)C1CCCC1	-7.1%
CCc1nnc(NC(=O)OCc2ccccc2)s1	13.2%
Cc1ccc(C)c(C2=CSC3=NCCN23)c1	-6.3%
O=C(Oc1ccc2cccc(OC(=O)N3CCOCC3)c2c1)N1CCOCC1	0.2%
CCOC(=O)c1sc(NC(=O)c2ccco2)nc1C	-14.0%
CCOC(=O)c1c(NC(=O)CN2CCOCC2)sc2c1CCCC2	-13.4%
CCN(CC)CCCNC(=O)c1ccccc1C	2.9%
Cc1c(O)c(=O)ccn1Cc1ccccc1	-2.0%[11.4 µM]
Cc1cc(C)cc(N2C(=O)CC(N3CCOCC3)C2=O)c1 (stereo not drawn)	-10.5%
CCOC(=O)c1c(-c2ccccc2)csc1NC(=O)c1nn(CC)cc1Br	31.6µM*
Cn1c(NC(=O)c2ccco2)c(-c2ccccc2)c(=O)c2ccccc21	2.0%
O=S(=O)(c1ccc2c(c1)OCCO2)N1CCN(Cc2ccc3c(c2)OCO3)CC1	-5.2%
O=C(O)C1CCCCC1C(=O)NCCCN1CCOCC1 (stereo not drawn)	2.8%
